High-throughput results (PubChem BioAssay)
Beta2AR agonist: beta2AR agonists driving receptor internalization, primary screen, cell-based, FAP fluorogen, flow cytometry | Beta-2 adrenergic receptor (Homo sapiens), P07550 | Am2.2-beta2AR cells; reference of the scale not given here | response, % (concentration not given with the values) | 340,000 tested, 0.43% active | AID 504454, 2011;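 active = response above a set limit, near 3 SD of response in nonfluorescent compounds, cut at about 42% in these data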;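 also: stock transfer was 100 nL into about 11 µL; a reference agonist was the positive control; negative values mostly stem from fluorescent compounds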
Target sequence (P07550 whole entry, looked up): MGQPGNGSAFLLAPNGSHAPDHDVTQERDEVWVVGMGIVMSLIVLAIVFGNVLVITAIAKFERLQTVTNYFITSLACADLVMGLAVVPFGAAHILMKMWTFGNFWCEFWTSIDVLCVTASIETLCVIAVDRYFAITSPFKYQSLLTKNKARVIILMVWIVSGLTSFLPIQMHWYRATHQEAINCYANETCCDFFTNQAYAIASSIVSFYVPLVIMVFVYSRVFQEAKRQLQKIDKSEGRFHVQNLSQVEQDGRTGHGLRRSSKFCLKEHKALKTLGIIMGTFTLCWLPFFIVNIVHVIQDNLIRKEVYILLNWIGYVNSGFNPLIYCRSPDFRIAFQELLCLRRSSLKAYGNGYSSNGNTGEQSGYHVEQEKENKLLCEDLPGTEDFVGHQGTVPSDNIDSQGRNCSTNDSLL
LANA-H2A inh: blockers of LANA interaction with H2A/H2B – biochemical, FP readout, HTS, primary screen | Protein LANA1 (Human herpesvirus 8 type P (isolate GK18)), Q9QR71 | cell-free LANA-H2A/H2B peptide, fluorescence polarization | inhibition, % (no concentration beside the values) | 320,000 tested, 0.6% active | AID 2629, 2010; in the data active = inhibition mostly above about 10%, no sharp cut-off; inactive = mostly below about 6.7%;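 also: stock transfer was 7.5 nL into about 10 µL; 0% = median of vehicle wells and 100% = median of positive control wells; one replicate is shown; the record names a cut of 25% in any replicate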
Vif A3G: inhibitors of Vif binding to APOBEC3G peptide, primary screen, biochemical, TR-FRET, GST-Vif 1-94, biotin-A3G peptide, dose response retest (AID 1117319) | Virion infectivity factor (Human immunodeficiency virus type 1 group M subtype B (isolate … | TR-FRET GST-Vif / biotin-A3G peptide binding; higher % means a stronger effect; test concentration not given here; strong numbers were not always called active | inhibition, %; hits with a dose series show IC50 in µM | 260,000 tested, 0.57% active;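 active = above the screen mean plus three standard deviations and confirmed in dose response; inconclusive = results disagree or hit not tested in dose response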;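 also: Vif residues 1-94 fused to GST binding biotinylated APOBEC3G peptide 110-148; 0% = full assay without inhibitor and 100% = GST in place of GST-Vif; retest series ran down from 100 µM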
RanGTP-Impb inh: inhibitors of RanGTP-importin-beta interaction, primary screen, biochemical, FRET, CFP-Ran, YFP-importin-beta, homogeneous; Ran GTPase (GTP-bound) - importin-beta complex; cell-free CFP-Ran/YFP-importin-beta FRET ratio; inhibition, % (test concentration not listed); 300,000 tested, 1.1% active; AID 2216, 2009;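 active = most replicates above 15%; inconclusive = exactly half above 15%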;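 also: 0% = DMSO wells and 100% = Ran loaded with GDP instead of GTP; wells of about 40 µL received 100 nL stock; the first replicate is given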
Calb FLC: C. albicans growth inhibition with fluconazole, primary screen, CaCi-2 strain, Alamar Blue fluorescence; C. albicans CaCi-2 (fluconazole-resistant clinical isolate) + fluconazole, 48 h; growth inhibition, % (test concentration not listed); 300,000 tested, 0.57% active; AID 1979, 2009;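 active = most replicates above 75%; inconclusive = exactly half above 75%; inactive = most below 75%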;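 also: all wells also contain fluconazole at 8 µg/ml as a sub-toxic cotreatment; 0% = median of DMSO wells and 100% = median of geldanamycin control wells; wells of about 8 µL received 7.5 nL stock; the first replicate is given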
ALR H2O2 inh: inhibitors of human ALR sulfhydryl oxidase, primary screen, biochemical, H2O2 detection, HRP-luminol luminescence, single point; FAD-linked sulfhydryl oxidase ALR (Homo sapiens), P55789; purified ALR, DTT oxidation; inhibition, % (test concentration not listed); 290,000 tested, 3.8% active;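 active = mean and each replicate at 75% or more; inconclusive = only one of the two met; inactive = neither met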;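 also: stock transfer was 7.5 nL into about 7.5 µL; 0% = neutral wells and 100% = wells with inactivated enzyme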
Target sequence (P55789 whole entry, looked up): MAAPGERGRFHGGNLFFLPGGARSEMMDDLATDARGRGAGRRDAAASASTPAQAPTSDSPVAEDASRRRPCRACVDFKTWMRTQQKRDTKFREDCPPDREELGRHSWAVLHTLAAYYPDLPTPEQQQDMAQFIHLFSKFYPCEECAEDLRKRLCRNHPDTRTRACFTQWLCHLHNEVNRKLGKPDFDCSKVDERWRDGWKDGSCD
HNF4A DNA FP: change in binding of human HNF4A to DNA, primary screen, biochemical, fluorescence polarization, FITC-DNA; 1 h; AID 1224865, 2016; activity change, % at 10 µM; 360,000 tested, 0.3% active; Hepatocyte nuclear factor 4-alpha (Homo sapiens), P41235; in the data active = activity change above about 30%, passing the limit was not always enough;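 also: controls were the assay level and a saturating level of protein; the project sought stronger binding though the title names inhibitors; some compounds called inactive have numbers as strong as hits; positive values seem to mean higher polarization but the record does not say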
Target sequence (P41235 whole entry, looked up): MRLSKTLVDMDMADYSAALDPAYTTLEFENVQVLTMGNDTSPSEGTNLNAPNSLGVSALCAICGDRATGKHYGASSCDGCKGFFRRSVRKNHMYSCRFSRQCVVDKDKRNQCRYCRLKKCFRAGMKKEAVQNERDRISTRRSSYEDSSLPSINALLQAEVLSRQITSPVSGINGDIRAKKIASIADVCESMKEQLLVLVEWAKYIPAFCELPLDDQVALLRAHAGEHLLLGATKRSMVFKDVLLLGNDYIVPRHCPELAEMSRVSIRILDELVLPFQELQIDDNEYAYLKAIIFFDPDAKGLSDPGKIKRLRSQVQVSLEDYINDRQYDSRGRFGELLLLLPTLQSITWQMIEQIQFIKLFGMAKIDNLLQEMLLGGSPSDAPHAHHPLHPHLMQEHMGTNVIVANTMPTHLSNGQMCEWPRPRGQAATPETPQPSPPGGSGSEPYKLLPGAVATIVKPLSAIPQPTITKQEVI
Active calls of the source: *; ? = inconclusive; · = no result given.

SMILES	Beta2AR agonist	LANA-H2A inh	Vif A3G	RanGTP-Impb inh	Calb FLC	ALR H2O2 inh	HNF4A DNA FP
Cc1ccc(Cn2c(C(CO)Nc3nc(-c4ccc(F)cc4)cs3)nc3ccccc32)cc1 (stereo not given)	-7	1.8	·	-11	4	-2	4.1
CC/C(=N\NC(=O)COc1ccc(Br)cc1)c1ccc(OC)c(OC)c1	-11	·	-7%	-1.9	-6	·	-1.9
CC1=C(C(=O)OCc2ccccc2)C(c2cccc(F)c2)NC(=O)N1 (stereo not given)	-5	-1.2	·	3.5	9	-4	-3.0
CCC(=O)NC1(C(F)(F)F)C(=O)Nc2c1c(=O)n(C)c(=O)n2C (stereo not given)	3	-2.7	9%	-2.1	-9	-1	2.7
CN(C)c1ccc(/C=N/NC(=O)CCc2c[nH]c3ccccc23)cc1	2	4.7	?	-0.3	1	98*	0.7
Cc1c(S(=O)(=O)N2CCCC(C)C2)c(=O)n(C)c(=O)n1C (stereo not given)	-11	-5.2	2%	3.4	0	1	-2.1
O=C(OCc1cccc([N+](=O)[O-])c1)c1ccncc1	-4	-0.2	-8%	-2.4	-16	-19	3.2
Cc1ccc(-c2noc(CSc3nnnn3-c3ccccc3)n2)cc1	-9	-1.7	-1%	-1.0	3	-3	1.2
CCN1C(=NCCCCO)N[C@@H](c2cccc(F)c2)C(C(=O)OC)=C1C	8	-3.8	·	5.2	1	1	-2.8
COC(=O)C1C2CCC(C2)C1C(=O)OCC(=O)c1ccccc1 (stereo not given)	-7	4.2	20%	0.2	2	-1	-1.7
COc1ccccc1C(=O)NC(=O)COC(=O)c1ccc(Br)o1	2	·	-9%	·	·	·	-6.0
OC(CN1CCCCC1)c1ccc2c3c(cccc13)CC2 (stereo not given)	0	·	-10%	·	·	·	-1.3
O=C(O)c1ccc(/C=N\Nc2ccc(S(=O)(=O)N3CCOCC3)cc2[N+](=O)[O-])cc1	1	-1.8	5%	-0.2	6	-5	-2.1
COc1ccc2c(c1)c(CCNNC(=O)C(C)(C)C)c(C)n2C(=O)c1ccc(Cl)cc1	2	-1.3	·	-3.4	8	-8	-1.2
CCOc1ccc(CCNC(=O)CCS(=O)(=O)c2ccc(Cl)cc2)cc1OCC	-2	1.3	·	-1.0	-7	-6	0.1
Cc1ccc(/C=N\NC(=O)Cn2nnc3ccccc32)o1	6	2.2	8%	1.4	-1	-11	1.4
COC(=O)Nc1ccc(S(=O)(=O)N2CCCC(C(=O)Nc3cccnc3)C2)cc1 (stereo not given)	-1	0.0	3%	1.4	?	-15	2.9
O=C(COc1coc(CN2CCN(c3ccccc3)CC2)cc1=O)Nc1ccc(F)cc1	3	-0.1	3%	2.2	23	·	0.3
Cc1ccc(-c2nnc(CSc3nc(C(C)C)nc4sc(C)c(C)c34)o2)cc1	1	-5.9	-8%	0.0	-2	-1	-0.4
COc1ccc(S(=O)(=O)N(C)C)cc1NC(=O)CCNC(=O)c1ccco1	0	-1.5	·	-2.4	1	-3	-0.9
Cc1ccc(-n2ncc3c(=O)n(CC#N)cnc32)cc1	0	0.2	0%	1.7	?	-3	-0.9
COc1cccc(CNC(=O)C(NS(=O)(=O)c2ccc3c(c2)CCN3C(C)=O)C(C)C)c1 (stereo not given)	-1	2.8	·	1.1	3	3	0.0
COc1ccc(C(O)Cc2nccn2C)cc1 (stereo not given)	0	0.5	·	6.7	5	4	-1.4
O=C(CSc1cnc2ccccc2n1)NC1CCCC1	0	-1.1	-4%	3.1	-11	1	0.6
N#Cc1cccc(-c2cn(S(=O)(=O)c3ccc(Cl)cc3)nc2N)c1	11	1.2	0%	-5.7	0	53	2.1
O=S(=O)(c1ccc(Br)c2ccccc12)N1CCCC1	6	-4.9	·	2.3	-5	·	-1.6
O=C(c1cnn2ccccc12)N(Cc1ccco1)C1CCCC1	-3	-2.2	-1%	4.3	-2	29	-0.1
COc1cccc(C(=O)Nc2ccc(NC(=O)C3CCCCC3C(=O)O)cc2)c1 (stereo not given)	13	1.2	·	-1.7	4	-2	0.8
CCOCCCN(C(=O)c1snc(C(N)=O)c1N)C(C(=O)NC1CCCC1)c1ccc(O)c(OC)c1 (stereo not given)	-12	2.0	·	1.6	8	27	0.3
CCN1CCCC1CNC(=O)c1cn(C)c2ccc(S(=O)(=O)N3CCCCCC3)cc2c1=O (stereo not given)	6	·	0%	·	·	·	0.9

Random excerpt: three entries already listed.
SMILES	Beta2AR agonist	LANA-H2A inh	Vif A3G	RanGTP-Impb inh	Calb FLC	ALR H2O2 inh	HNF4A DNA FP
O=C(COc1coc(CN2CCN(c3ccccc3)CC2)cc1=O)Nc1ccc(F)cc1	3	-0.1	3%	2.2	23	·	0.3
COc1ccc(S(=O)(=O)N(C)C)cc1NC(=O)CCNC(=O)c1ccco1	0	-1.5	·	-2.4	1	-3	-0.9
Cc1ccc(-c2nnc(CSc3nc(C(C)C)nc4sc(C)c(C)c34)o2)cc1	1	-5.9	-8%	0.0	-2	-1	-0.4

(next part)
SMILES	Beta2AR agonist	LANA-H2A inh	Vif A3G	RanGTP-Impb inh	Calb FLC	ALR H2O2 inh	HNF4A DNA FP
Cc1cc(C(=O)Nc2ccccc2Cl)n(-c2ccccc2)n1	-6	5.3	-6%	1.3	2	5	2.0
CCc1ccc(NS(=O)(=O)c2cccs2)cc1	-1	5.8	9%	-2.0	-6	10	4.2
CCn1cc(C(=O)N(C)CC(OC)OC)c(=O)c2cc(S(=O)(=O)N3CCOCC3)ccc21	-1	4.9	8%	3.7	-1	-16	-0.7
CCC(C)C(=O)Nc1ccc(OC)cc1OC (stereo not given)	2	5.2	1%	-1.8	14	-4	1.6
Cc1cc(C)c(S(=O)(=O)NCc2cn3c(C)csc3n2)cc1C	3	1.1	5%	1.5	-1	3	-0.6
CCOC(=O)C1=C(C)NC(C)=C(C(=O)OCC)C1C(=O)OCC(=O)N1CCCCC1C (stereo not given)	3	1.4	-8%	·	·	0	-4.5
CC(=O)Oc1cccc2c1C(=O)c1c(OC(C)=O)cc(C(=O)O)cc1C2=O	8	2.5	·	3.7	·	·	-70
COc1ccc(C(=O)Oc2cc(C)[nH]c(=O)c2[N+](=O)[O-])c(OC)c1	5	-7.2	·	4.6	1	-1	2.8
N#Cc1cc(-c2ccccc2)cnc1Sc1ccccc1	1	4.7	-9%	-4.3	22	-14	1.6
COc1ccc(CCN=C(N)NS(=O)(=O)c2ccc(OC)cc2)cc1	-7	-3.0	·	1.4	1	4	-3.2
CC/C(C)=N\Nc1nc(-c2cc3cc(OC)ccc3oc2=O)cs1	6	-2.5	2%	-1.8	-3	·	-5.7
N#Cc1c(-c2ccccc2)nc(SCc2nc(N)nc(N3CCCCC3)n2)[nH]c1=O	1	-3.4	9%	3.2	1	97*	3.0
O=C(COC(=O)c1ccc(S(=O)(=O)NCc2ccco2)cc1)NCc1ccc(F)cc1	-5	1.7	-1%	·	·	·	-3.2
O=C(N/N=C/c1c[nH]c2ccccc12)c1cc(-c2ccccc2)n[nH]1	14	0.2	?	0.9	-10	13	-0.9
Cn1c(=O)c2cn(-c3ccc4c(c3)OCCO4)cc2n(C)c1=O	9	4.0	19%	2.1	-5	-15	2.5
CCOc1ccc(S(=O)(=O)N2CCCCC2)cc1NC(=O)CN1C(=O)NC(C)(c2ccccc2)C1=O (stereo not given)	3	3.2	-4%	2.3	·	-22	0.4
COc1ccccc1C1CC(c2c(-c3ccccc3)c3cc(Cl)ccc3[nH]c2=O)=NN1S(C)(=O)=O (stereo not given)	25	-3.4	2%	·	·	-4	5.9
Cc1ccc(NC2CC(=O)N(Cc3ccccc3)C2=O)cc1 (stereo not given)	8	3.7	20%	-6.2	12	33	-4.0
CCn1cc(S(=O)(=O)c2ccccc2)c(=O)c2cc(F)c(N3CCN(C)CC3)cc21	16	2.1	-5%	-6.6	22	-5	-0.8
COc1ccccc1C(=O)N/C(=C/c1ccc2c(c1)OCO2)C(=O)Nc1cccc(C(=O)O)c1	4	3.0	6%	0.2	-11	18	0.2
Cc1ccc(C)c(N2CCN(C(=O)c3ccc(Cn4c(=S)[nH]c5ccc(N6CCOCC6)cc5c4=O)cc3)CC2)c1	4	3.8	-323%	-1.4	2	-75	1.1
O=C(CSCc1ccc([N+](=O)[O-])cc1)Nc1ccc(S(=O)(=O)N2CCCCCC2)cc1	5	2.8	·	-2.1	1	-8	2.6
CC(C)(C)NC(=O)/C=C/c1cccc(C(F)(F)F)c1	8	·	1%	-1.8	15	·	-0.3
CN(C1(C)CCS(=O)(=O)C1)S(=O)(=O)c1cccc([N+](=O)[O-])c1 (stereo not given)	-1	2.9	3%	1.4	-5	-7	-1.1
O=C(COC(=O)c1cccc([N+](=O)[O-])c1)c1ccc(OCc2ccccc2)cc1	29	-23	·	-4.6	3	0	-3.4
C=CCOC(=O)CSCC(NC(=O)OC(C)(C)C)C(=O)OCC (stereo not given)	0	2.7	28%	-2.8	-6	-1	0.6
CCn1cc(C(=O)OCC(=O)c2cc(C)n(-c3cccc(C(F)(F)F)c3)c2C)c(=O)c2ccc(C)nc21	6	54*	·	-1.0	0	-2	-0.5
c1ccc(Cc2ccc(OCCN3CCOCC3)cc2)cc1	-4	0.6	·	0.3	-42	-6	1.5
CC(NC(=O)COC(=O)c1cc2ccccc2cc1O)c1ccccc1 (stereo not given)	2	·	-4%	·	·	·	3.7
CCOc1ccc(Nc2nc3c(c(=O)[nH]2)CCC3)cc1	2	-4.4	7%	·	-13	-14	2.0
Nc1c(Cl)cc(C2=NCCn3nc4cc([N+](=O)[O-])ccc4c32)cc1Cl	-3	0.6	·	·	·	-9	1.7
Cc1ccc(S(=O)(=O)CC(=O)N2CCCCCC2)cc1	-2	1.5	25%	2.3	-4	-2	-0.8
COCCCn1c(SCC(=O)c2ccccc2)nc2ccccc2c1=O	-8	-5.7	·	-0.7	-2	2	6.7
COc1cccc(C2CCCCN(C)C2=O)c1 (stereo not given)	-10	6.7	·	-1.0	-1	·	0.2
CC(=O)NS(=O)(=O)c1ccc(NC(=O)/C=C/c2cn(-c3ccccc3)nc2-c2ccccc2)cc1	-20	4.0	7%	2.0	-3	98*	-0.5
O=c1c(C=Nc2cccc(C(F)(F)F)c2)c[nH]n1-c1cccc(Cl)n1	-12	0.9	3%	-1.5	-16	·	-0.8
COc1ccccc1N1CCN(/N=C/c2cc(OC)c(OC(C)=O)c(OC)c2)CC1	18	-0.5	·	-4.0	5	1	1.0
OCCNCCCCSc1ccc(Cl)cc1	20	0.6	6%	5.3	15	-17	-0.2
O=C(CSc1ncccn1)Nc1ccc(Cl)c(S(=O)(=O)N2CCOCC2)c1	-1	-1.6	1%	·	·	-2	-0.3
Cc1ccccc1C1NS(=O)(=O)N=C1N (stereo not given)	4	-0.1	-4%	-1.1	5	-15	-2.3
COC(=O)CCSCC(=O)Nc1ccc(C)c(S(=O)(=O)N2CCCCC2)c1	12	4.3	-4%	7.2	-14	99*	-1.1
Cc1ccc(N(CC(=O)NCC2CCCO2)S(=O)(=O)c2ccc(Cl)cc2)cc1C (stereo not given)	-7	0.5	-3%	?	13	-1	-0.4
CCOC(=O)CSc1nnc([C@H](Cc2ccccc2)NC(=O)OC(C)(C)C)o1	6	5.6	-1%	-4.3	-5	7	2.7

No enrichment for hits. Share with any hit: about 6.3%.
